Bead autofluor – compound fluorescence in toxin protease inhibitor counterscreen. hit rate 3.1% among 360,000. compound autofluorescence counterscreen, microsphere flow cytometry; hits give high values. fluorescence intensity (concentration not given with the values);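 active = at least 3 SD above the mean of all compounds, about 16000 in these data; inconclusive = too few beads counted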;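 note: 100 nL of 1 mM stock went into each well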
Sa ugtP lethal – growth inhibition of S. aureus ugtP deletion strain; S. aureus RN4220 ugtP deletion, OD600 growth, 16 h; some inactives read as strong as hits; growth inhibition, % (no concentration beside the values); hit rate 0.54% among 330,000; AID 1259309;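 active = z-score under -3 and OD600 up to 0.15 on both plates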;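 note: plate controls were untreated wells for no effect and antibiotic for full effect; wells of about 80 µL received 100 nL stock; the first replicate is given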
BJeLR lethal – kills HRASV12-expressing BJeLR cells; AID 1554; inhibition, % (test concentration not listed); BJeLR (HRASV12) viability, CellTiter-Glo ATP luminescence, 48 h; reference of the scale not given here; hit rate 0.17% among 300,000;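 active = replicate mean above 50%; inconclusive = above 50% but judged a plate artefact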;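 note: 50 nL library stock added to about 25 µL; numbers are from one replicate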
RN4220 kill – S. aureus RN4220 growth inhibition; OD600, 16 h; inhibition, % (test concentration not listed); hit rate 0.33% among 330,000; AID 1259311;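 active = z-score of -3 or lower and OD600 up to 0.18 on both plates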;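 note: plate controls were untreated cells for no effect and reference antibiotic for full effect; stock transfer was 100 nL into about 80 µL; one replicate is shown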
PrP UTR inh – suppresses PrP 5' UTR mRNA reporter expression; cell-based PrP 5' UTR mRNA reporter, plate reader; hit rate 0.35% among 340,000; inhibition, % (test concentration not listed);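 active = every replicate at 50% or more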;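 note: 0 = median of the neutral control wells; tested in H4 reporter cells; numbers are from one replicate; inactives centre near -14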
Mtb hypoxia rep – inhibitors of hypoxia-regulated fluorescent reporter in Mycobacterium tuberculosis; M. tuberculosis hypoxia-regulated fluorescent reporter, fluorescence; fluorescence inhibition, % (concentration not given with the values); hit rate 0.1% among 300,000;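 active = 35 to 45% if threefold the growth effect, above 45% if 1.5-fold the growth effect; inactive = the rest, general growth blockers included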;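 note: wells of about 50 µL received 100 nL stock; 0% = vehicle wells and 100% = reference inhibitor wells; whole bacteria with a GFP reporter of the hypoxia response; strong numbers were not always called active; many hits fall short of the cut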
Mtb hypoxia rep growth – further read-out of Mtb hypoxia rep, marked with its call; growth inhibition, %; measured here: M. tuberculosis growth (absorbance);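 0% = vehicle and 100% = reference antibiotic; read after six days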
The depositor's hits bear a star; ? = inconclusive; . = no result given.

structure	Bead autofluor	Sa ugtP lethal	BJeLR lethal	RN4220 kill	PrP UTR inh	Mtb hypoxia rep	Mtb hypoxia rep growth
Cc1cc(C)cc(N/C(N)=N/c2nc(C)cc(C)n2)c1	10750	-2.1	4.4	3.1	-19.1	-5.2	2.0
COc1ccc(NC(=O)C23CC4CC(C2)CC(c2ccc(C)cc2)(C4)C3)cc1	2364	-9.0	8.4	-7.3	3.5	-1.5	-1.2
O=C(O)c1nn(CC(=O)N2CCN(c3ncc(C(F)(F)F)cc3Cl)CC2)c(=O)c2ccccc12	4462	4.0	-8.2	0.5	-5.3	2.7	2.1
FC(F)(F)c1cccc(Cc2noc(CN3CCCCC3c3ccccn3)n2)c1 (centres undefined)	4798	4.3	-5.6	0.9	-36.7	4.5	5.5
CC(Sc1nncn1C)C(=O)NCCC1=CCCCC1 (centres undefined)	4231	0.6	.	-0.6	-13.2	4.6	7.0
CC(=O)c1ccc(S(=O)(=O)NC2CC(=O)N(c3ccc(Cl)cc3)C2)cc1 (centres undefined)	5477	2.6	-9.6	4.7	4.5	-2.5	15.7
COC(=O)c1c(C)nsc1NC(=O)Oc1ccccc1	4297	3.6	.	3.2	-15.7	-13.3	2.5
Cc1ccc2[nH]c(-c3ccccc3)c(CN3CCOCC3)c(=O)c2c1	3211	-2.5	-2.8	-14.9	-20.3	0.7	2.8
COc1ccc(NC(=O)CCc2nc(-c3ccc(C)cc3)no2)cc1Cl	2473	0.7	6.0	-4.5	-35.9	.	.
CCNC(=S)N(CCc1c(C)[nH]c2ccc(C)cc12)Cc1cccnc1	4377	-1.0	-11.0	0.5	-14.6	-6.1	1.3
Cc1ccc(OCc2nnc(SCc3cc(=O)[nH]c4ccccc34)o2)cc1	3356	2.8	-2.8	3.4	-11.9	13.5	9.4
Cc1ccc(N2C(=O)N(C(C)C)C(C)(C)CC2(C)O)cc1 (centres undefined)	5394	2.0	-0.8	2.6	-3.1	1.3	3.1
CCc1nnc(NC(=O)CSc2nnc(-c3cc4ccccc4cc3O)n2CC)s1	8463	-6.4	6.9	3.6	-34.1	1.4	2.3
CCOC(=O)c1cc(-c2ccccc2)n[nH]1	4439	-2.2	-2.3	3.6	-0.1	-6.7	13.4
Cc1nc(NC(=O)/C=C/c2ccco2)sc1C	1936	5.7	25.5	2.5	-190.3	6.1	4.0
Brc1ccccc1/C=N/Nc1nc2ccccc2o1	2991	.	-0.1	.	-55.7	.	.
C[C@@H]1CN(C(=O)c2nc3ccc(Cl)cn3c2CNCC[C@@H]2C[C@@H]3C=C[C@H]2C3)C[C@H](C)O1	4542	13.5	2.2	-2.0	-25.3	3.5	8.8
Cc1cc(C)cc(N2C(=O)C=CC2=O)c1	2876	8.1	.	5.6	-13.0	9.3	4.3
Cc1ccc(C(=O)ON=C2CC3CCC2(C)[C@@]3(C)CBr)cc1 (some centres undefined)	.	-1.3	.	5.9	.	13.9	0.5
Cc1csc(NC(=S)NC(=O)c2ccccc2)n1	5698	41.5	1.4	0.6	-62.9	7.0	3.1
Cc1cc(C)cc(-n2ncc3c2CCCC3NC(=O)CN2CCCC2=O)c1 (centres undefined)	4327	-0.4	-4.5	-1.6	0.8	2.3	-3.2
COc1cccc(CNC(=O)C2=Cc3cccc(OC)c3OC2)c1	4142	0.0	-2.9	2.8	-16.7	4.8	5.4
CCOC(=O)C1CCN(C(=O)c2cccnc2Oc2ccccc2)CC1	5510	-1.1	14.2	0.7	-19.3	0.9	10.7
CCCCCOCC(O)CCC(=O)NN (centres undefined)	3138	4.1	-4.2	5.1	-25.8	14.8	4.4
Cc1ccc(C(=O)NC2CCN(S(=O)(=O)c3ccc(F)cc3)CC2)cc1	.	8.4	-4.2	2.4	-15.1	-6.3	-6.9
CC(C)OCCCNC(=O)c1cc(S(=O)(=O)N2CCCCC2)c[nH]1	5924	7.5	12.6	3.4	-9.3	15.9	5.7
COc1cccc(NC(=O)CN2CCN(C(=O)c3ccco3)CC2)c1	6097	-8.6	4.9	-0.5	-19.4	0.8	12.6
CCn1c(CNC(=O)COC)nc2ccccc21	6844	-2.0	-8.1	-2.3	-22.3	3.6	13.2
COc1ccc(OC)c(C(C)NC(=O)Nc2ccccc2)c1 (centres undefined)	2649	0.1	-1.5	0.5	-15.6	-11.7	-11.6
CC(C)=CCC/C(C)=C/C(N)=O	4156	-0.7	-3.6	2.6	-21.8	10.6	-2.8
Cc1cccc(C)c1OCc1nc2ccccc2c(=O)n1N=Cc1ccc(OCC(=O)O)cc1	.	-12.4	.	15.3	.	0.9	5.6
CCCOc1ccc(C(=O)CCC(=O)OCC(=O)Nc2ccc(OCC)cc2)cc1	.	1.5	5.6	6.3	.	8.1	1.2
O=C1OC/C(=C(/O)c2ccc(Cl)cc2)C1=O	3468	4.6	-1.9	2.2	-11.6	-17.9	-9.9
Cc1ccc(OCc2nnc(SCC(=O)c3ccccc3)n2-c2ccccc2)cc1	?	-27.3	0.0	2.2	-2.2	-2.7	12.8
O=C(c1ccc([N+](=O)[O-])cc1)N1CCC(n2nnc3cc(F)ccc32)CC1	4140	-2.8	-4.5	4.3	-67.2	4.9	11.2
O=C(CN1C(=O)NC2(CCCCCC2)C1=O)NCc1cccs1	2668	9.0	-9.0	2.2	-14.6	9.3	5.3
Cc1cc(C)c(C(N)=O)c(Nc2ccc3c(c2)OCCO3)n1	4395	4.4	-0.7	3.4	1.3	.	.
Cc1ccc(C)c(NC(=O)CSc2nnc(CNC(=O)c3cccs3)o2)c1	2168	-2.5	-4.1	6.7	-6.4	-1.0	4.3
CCOC(=O)C1CCN(C(=O)C2(NC(=O)NC3CCCCC3)CCCCC2)CC1	3704	8.1	-3.2	4.8	-14.9	1.6	9.4
COc1cc(C(=O)N(Cc2cc3cc(C)ccc3[nH]c2=O)CC2CCCO2)cc(OC)c1OC (centres undefined)	9658	5.2	6.3	3.1	-17.0	4.5	1.1
CCOC(=O)Cn1nc(/C=C/c2ccc(OC)cc2)ccc1=O	2323	7.7	-4.0	3.1	-13.0	.	.
COCCN(Cc1cc2ccccc2[nH]c1=O)C(=O)c1ccccc1OC	4250	0.0	7.3	3.4	-8.5	5.8	0.2
COc1ccc(C(=O)NNC(=O)C(Cc2ccc(O)cc2)NC(=O)c2ccccc2NC(=O)c2ccc(OC)cc2)cc1 (centres undefined)	10741	5.9	-8.4	-0.4	0.5	1.8	4.7
O=C(CCc1c[nH]c2ccccc12)NC1CC1	4580	3.8	15.6	2.7	-0.7	.	.
CCOC(=O)c1cc2c(s1)-c1ccccc1CC2	4422	66.3	-8.1	25.9	-97.8	.	.
C/C=C(/C)C(=O)O[C@@H]1c2c(ccc3ccc(=O)oc23)O[C@@H]1C(C)(C)OC(=O)/C(C)=C\C	4069	.	6.5	.	-3.6	.	.
Cc1ccc(C)c(CNS(=O)(=O)c2c(C)[nH]c(C)c2C(=O)N2CCCCC2)c1	4121	0.3	6.8	3.3	-0.9	-2.2	-7.4
O=S(=O)(c1ccc(-c2nnc(SCc3ccccc3)o2)cc1)N1CCCC1	19388*	-8.8	-8.3	1.5	-14.4	11.4	7.6
NC(=S)NN=C1CCC(C2CCCCC2)CC1 (centres undefined)	4134	-2.9	.	2.4	-12.3	13.4	16.3
CCOc1ccccc1N(CC(=O)NCCSc1ccccc1)S(C)(=O)=O	5393	-0.2	-1.0	5.3	-15.1	10.6	3.2
O=C(COc1ccc(-c2ccccc2)cc1)NN=Cc1cc(O)ccc1Br	.	14.5	.	38.5	.	1.8	7.0
O=C1CCCN=C(Nc2ccc(F)c(Cl)c2)S1	4752	-8.0	3.6	-2.7	-20.1	2.6	17.4
Cc1ccc(S(=O)(=O)N2CCN(C(=O)COC(=O)c3ccc(Br)o3)CC2)c(C)c1	6365	10.6	-1.7	5.6	-39.9	7.2	0.0
C/C(=N/NC(=O)c1ccc2c(c1)OCO2)c1ccc(Br)s1	2498	.	6.9	.	-42.3	.	.
COCCCN1C(=O)/C(=C\c2ccc3c(c2)OCO3)C(C(=O)OC)=C1C	4542	5.9	0.4	4.9	-26.5	1.8	9.8
COc1cc(C(=O)Nc2cc(S(C)(=O)=O)ccc2Cl)ccc1OCC(=O)N1CCOCC1	3172	-3.6	.	-1.6	-1.2	-5.9	-1.7

4 entries from above, sorted by length of the SMILES, rising.
structure	Bead autofluor	Sa ugtP lethal	BJeLR lethal	RN4220 kill	PrP UTR inh	Mtb hypoxia rep	Mtb hypoxia rep growth
C/C(=N/NC(=O)c1ccc2c(c1)OCO2)c1ccc(Br)s1	2498	.	6.9	.	-42.3	.	.
O=C(COc1ccc(-c2ccccc2)cc1)NN=Cc1cc(O)ccc1Br	.	14.5	.	38.5	.	1.8	7.0
COCCCN1C(=O)/C(=C\c2ccc3c(c2)OCO3)C(C(=O)OC)=C1C	4542	5.9	0.4	4.9	-26.5	1.8	9.8
Cc1ccc(S(=O)(=O)N2CCN(C(=O)COC(=O)c3ccc(Br)o3)CC2)c(C)c1	6365	10.6	-1.7	5.6	-39.9	7.2	0.0

Going on with the list.
structure	Bead autofluor	Sa ugtP lethal	BJeLR lethal	RN4220 kill	PrP UTR inh	Mtb hypoxia rep	Mtb hypoxia rep growth
Cc1cccnc1CN1CCN(Cc2nc(Cc3cccc(F)c3)no2)CC1	4720	-3.0	-2.5	-0.1	-22.0	-1.3	13.5
Cc1ccnc(NC(=O)c2ccc3c(c2)C(=O)N(CC(C)C)C3=O)c1	6361	8.7	-1.6	4.2	-32.3	6.3	-3.4
CC(Sc1n[nH]c(-c2ccccc2F)n1)C(=O)Nc1ccc(S(N)(=O)=O)cc1 (centres undefined)	3654	1.8	.	1.5	1.0	1.7	-1.7
Cc1ccc(S(=O)(=O)N2CN(Cc3ccco3)c3nc4ccccc4nc32)cc1	2881	-0.4	-6.5	-17.7	-13.7	24.2	-21.5
COc1cc(NC(=S)NC(=O)c2ccccc2F)ccc1NC(=O)c1ccco1	2637	1.1	2.5	5.7	-29.6	8.6	2.7
COc1ccc(C(=O)NN=Cc2ccoc2)cc1	.	7.1	.	0.3	.	12.7	-6.9
COc1ccc(-c2ccc(OC)c(C3C4C=CCC(C)C4C(=O)N3Cc3ccccc3)c2)cc1OC (centres undefined)	.	-2.6	.	2.7	.	-1.6	5.4
CC(=O)c1ccc(NC(=O)c2ccc(CNc3c(N4CCCC4)c(=O)c3=O)cc2)cc1	4016	1.9	-2.8	5.3	-13.7	-3.9	4.8
CC(C)NC(=O)CN(Cc1ccc(F)cc1)C(=O)CCC(=O)Nc1ccccn1	3473	8.9	6.0	2.3	-1.3	10.8	6.2
O=C(Nc1nnc(C2CC2)s1)c1cncc(Br)c1	.	-4.6	.	10.9	-39.1	3.0	7.2
COc1ccc(C2(C)NC(=O)N(CC(=O)Nc3ccc(-c4nc5ccc(C)cc5s4)cc3)C2=O)cc1 (centres undefined)	3776	0.7	6.8	2.7	-61.6	0.3	-5.4
Cc1cc(O)cc(O[C@H]2OC(CO)[C@H](O)[C@@H](O)[C@H]2O)c1 (some centres undefined)	4190	.	-11.0	.	-10.0	.	.
Cn1cc(C(=O)NC2CC2)c2ccccc21	4276	6.9	11.2	-0.6	-15.6	5.9	10.1
CCCCNC(=O)c1onc(CSc2ccc(F)c(F)c2)c1C(=O)NCCCC	4179	-2.8	4.9	-6.5	-17.6	6.0	9.1
CCCc1c(C(=O)NNc2ccc(C)cc2)cnn1-c1ccccc1	4649	12.9	-24.3	-5.4	-17.2	-1.7	-6.0
COc1ccc(N=C2SC(=Cc3ccc(C)o3)C(=O)N2CC(C)C)cc1	.	42.6	.	-3.5	.	3.7	-1.4
Cc1ccc(NC(=O)Nc2cccc(F)c2)nc1	3629	-4.8	-0.9	4.8	-54.6	1.6	0.5
COc1ccc(-c2nnn(CC(=O)N(Cc3ccc(F)cc3)C(C(=O)NC3CCCC3)c3ccc(F)cc3)n2)cc1 (centres undefined)	5748	0.9	2.4	6.8	-9.5	-9.4	-17.1
CCCc1nc2ccccc2c(=O)n1NC(=O)c1c(O)c2ccccc2[nH]c1=O	11387	8.3	3.8	37.8	-20.9	3.7	3.7

Compound activity deposited in PubChem by several laboratories.
